Source: PubChem BioAssay
KCNQ2 inh = KCNQ2 potassium channel inhibitors, primary screen, cell-based, CHO-K1, FluxOR thallium flux, B-score (AID 2156). B-score at 10 µM. hit rate 1.1% among 310,000. 20 min; active compounds read low; only compounds with negative scores are shown here; some inactives read as strong as hits. O88943;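 active means fluorescence ratio B-score at most minus 3 library SDs, with starting brightness B-score within 2 library SDs, cut at about -5.5 in these data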
Target sequence (O88943 whole entry, looked up): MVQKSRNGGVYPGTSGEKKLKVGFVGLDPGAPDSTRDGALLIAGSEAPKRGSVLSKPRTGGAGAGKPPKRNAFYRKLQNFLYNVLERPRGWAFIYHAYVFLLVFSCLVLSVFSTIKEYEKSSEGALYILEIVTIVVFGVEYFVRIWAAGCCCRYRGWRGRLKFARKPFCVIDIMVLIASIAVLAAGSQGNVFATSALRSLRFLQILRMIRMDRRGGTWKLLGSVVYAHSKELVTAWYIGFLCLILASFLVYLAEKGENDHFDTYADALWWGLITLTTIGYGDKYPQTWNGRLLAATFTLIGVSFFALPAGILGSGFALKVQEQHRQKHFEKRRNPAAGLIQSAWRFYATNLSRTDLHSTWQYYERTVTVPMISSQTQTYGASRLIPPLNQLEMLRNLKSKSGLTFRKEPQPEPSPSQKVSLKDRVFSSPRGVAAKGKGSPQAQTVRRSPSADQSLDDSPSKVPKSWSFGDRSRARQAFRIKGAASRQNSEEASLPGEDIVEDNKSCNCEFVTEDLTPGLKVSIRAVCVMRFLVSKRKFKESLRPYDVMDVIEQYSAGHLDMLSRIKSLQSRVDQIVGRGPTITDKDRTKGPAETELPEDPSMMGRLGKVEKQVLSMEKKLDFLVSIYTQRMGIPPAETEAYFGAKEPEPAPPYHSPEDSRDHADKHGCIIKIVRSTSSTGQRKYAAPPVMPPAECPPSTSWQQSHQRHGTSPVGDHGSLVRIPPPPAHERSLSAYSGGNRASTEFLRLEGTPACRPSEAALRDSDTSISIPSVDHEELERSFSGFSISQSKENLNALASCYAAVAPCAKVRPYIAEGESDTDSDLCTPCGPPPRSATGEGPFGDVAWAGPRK
KCNQ2 inh baseline = second read-out of KCNQ2 inh, no call of its own (marks repeat the call); B-score; measured here: initial fluorescence intensity artifact check;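 brightness before thallium and not channel activity; 0 = typical well and far values either way flag optical interference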
An asterisk follows results filed as active; i = inactive.

structure,KCNQ2 inh,KCNQ2 inh baseline
CCc1ccccc1NC(=O)CCC(=O)c1cccs1,i,0.32
O=S(=O)(Nc1ccon1)c1ccc(F)c(F)c1,i,3.5
CC(C)CCC1=NN(C(=O)c2ccco2)C(O)(C(F)(F)F)C1 (configuration not stated),i,0.08
Cc1ccc(C(=O)N/C(=C\c2ccc([N+](=O)[O-])cc2)C(=O)NCCc2ccccc2)cc1,i,1
CC(=O)Nc1ccc(S(=O)(=O)N2CCC(C(=O)NCc3ccncc3)CC2)cc1,i,-0.02
CCOC(=O)c1ccc(NC(=O)Nc2ccc(F)cc2)cc1,i,-0.15
Cc1cc(C)c2c(=O)[nH]c(SCC(=O)Nc3ccccc3)nc2n1,i,-0.43
CCOC(=O)c1cnn2c(N)c(C#N)nnc12,i,0.12
O=C(NCCN1CCOCC1)c1ccc(NC(=O)C2COc3ccccc3O2)cc1 (configuration not stated),i,0.31
CCN(CC(=O)Nc1c(F)cccc1F)C(=O)c1ccc2c(c1)S(=O)(=O)N=C1CCCCCN12,i,2.1
CCCCn1c(N)c(N(CCOC)C(=O)CSc2nnc(-c3ccncc3)n2CCC)c(=O)[nH]c1=O,i,0.53
Cc1ccc(C(=O)N/C(=C\c2cccnc2)c2nc3ccccc3[nH]2)cc1,i,-1
Fc1ccc(C2c3[nH]c4ccccc4c3CCN2Cc2ccoc2)cc1 (configuration not stated),i,0.09
COC(=O)CCCn1c(C)cc(C(=O)CCl)c1C,i,0.19
Cc1cc(Cl)nc(-n2nc(C)cc2C)n1,i,-0.11
Cc1cc(N2CCN(c3ccccc3F)CC2)nc2cc(O)ccc12,i,-3
O=C(CSc1nncs1)NC(=O)Nc1ccc2c(c1)OCCO2,i,-0.29
C=CCC(NCc1ccccc1)c1ccc(Cl)cc1 (configuration not stated),i,-1.5
CN(C)/C=N/c1sc2c(c1C(N)=O)CCCC2,i,-0.85
COc1ccc(NC(=O)c2cccc(Cn3cc(Br)c([N+](=O)[O-])n3)c2)c(C)c1,i,-0.3
Cc1noc(C)c1COC(=O)CCc1nc2ccccc2c(=O)[nH]1,i,2.4
COc1ccc(-c2cn[nH]c2-c2ccc(O)cc2O)cc1,i,-1.1
CCn1cc(C(=O)OCC(=O)c2cc(C)n(-c3ccccc3F)c2C)c(=O)c2ccc(C)nc21,i,1
Cc1ccsc1/C=C/c1n[nH]c(=O)c(C#N)c1C,i,2.8
Cc1ccc(N2C(=O)NC(NC(=O)c3ccc(Cl)cc3)(C(F)(F)F)C2=O)cc1 (configuration not stated),i,-1.7
C=CCn1c(CCC(O)COCCCCC)n[nH]c1=S (configuration not stated),i,0.99
COC(=O)C1=C[C@@H](C(=O)OC)[C@@H]2C3=C(C(=O)[C@]2(C)NC(=O)c2ccccc2)[C@H](C)n2c(=O)n(C)c(=O)n2[C@@H]3C1,i,0.11
COc1ccccc1NC(=O)C1=C(C)Nc2nnnn2C1c1cccc(C)c1 (configuration not stated),i,0.74
O=C(COC(=O)[C@H](Cc1ccccc1)N1C(=O)c2ccccc2C1=O)Nc1ccc2c(c1)OCO2,i,-0.65
COc1ccc(Cl)cc1NC(=O)CSc1nnc(COc2ccccc2)n1C,i,-1.7

Quoted at random: three compounds from above.
structure,KCNQ2 inh,KCNQ2 inh baseline
Fc1ccc(C2c3[nH]c4ccccc4c3CCN2Cc2ccoc2)cc1 (configuration not stated),i,0.09
COc1ccc(Cl)cc1NC(=O)CSc1nnc(COc2ccccc2)n1C,i,-1.7
Cc1cc(Cl)nc(-n2nc(C)cc2C)n1,i,-0.11

(list continues)
structure,KCNQ2 inh,KCNQ2 inh baseline
CCCCNC(=O)/C(C#N)=C/c1ccc2c(c1)OCCO2,i,1.1
Cc1ccc(NS(=O)(=O)c2ccc3c(c2)n(C)c(=O)c(=O)n3C)c(C)c1,i,0.05
CC(C)c1ccc2[nH]c(O)c(N=NC(=O)c3cccc(S(=O)(=O)Nc4ccccc4Cl)c3)c2c1,i,0.65
Cc1ccc(-n2nc(C)c(C(=O)O)n2)c(C)c1,i,0.13
NS(=O)(=O)c1ccc(-c2ccc(C=O)o2)cc1,i,1.8
COc1cccc(NS(=O)(=O)c2cc3c(cc2C)N(C(C)=O)CCO3)c1,i,-0.44
Cc1nn(-c2ccccc2)c2nc(N)c(C#N)c(-c3ccc(C(C)(C)C)cc3)c12,i,0.74
O=C(NCC12CC3CC(CC(C3)C1)C2)c1nn2cccnc2c1Cl,i,0.24
Cc1onc(-c2ccccc2)c1C(=O)NCCc1ccc(Cl)cc1,i,0.12
Oc1cccc(NC(=S)Nc2ccc(SC(F)F)cc2)c1,i,0.01
CCCn1c(-c2ccc(OC)cc2)nc2c(=O)n(C)c(=O)[nH]c21,i,1.2
CCOC(=O)C(CCCCP(=O)(c1ccccc1)c1ccccc1)(NC(C)=O)C(=O)OCC,i,-0.36
Cc1cc(C)c2cc3c(N)c(C(=O)Nc4c(C)[nH]c(=O)[nH]c4=O)sc3nc2c1,i,2.8
CCN(CC)c1ccc(CNCc2cccs2)cc1,i,0.33
OCCNc1nc2ccccc2n1-c1ccccc1,i,-0.46
CCN(CC)C(=O)Cn1cc(C(=O)C(=O)N2CCN(c3ccccc3)CC2)c2ccccc21,i,0.69
CCOC(=O)CC1C(=O)NCCN1C(=O)c1ccc(Cl)cc1 (configuration not stated),i,-1.9
O=C(NC1CCCN(Cc2ccc(Cl)cc2)C1)c1cccc(N2CCCC2=O)c1 (configuration not stated),i,-0.11
CCNc1nc(Oc2ccc(C(=O)OC)cc2)nc(N(C)C)n1,i,-1
Cc1cc(NC2CCCCC2)nc(-c2ccccc2O)n1,i,-2
CSC1=NCCN1C(=O)Cc1ccc(-c2ccccc2)cc1,i,-1.7
CC(C(=O)NCC1CCCO1)N(C(=O)c1snc(C(N)=O)c1N)c1ccccc1 (configuration not stated),i,0.08
O=C(Nc1ccc2nccnc2c1)c1ccco1,i,0.22
Cc1ccc(N2C(=O)c3cccc4c(N)ccc(c34)C2=O)c2cccnc12,i,27
COc1ccc(N(CC(=O)NCCSCc2cccc(Cl)c2)S(C)(=O)=O)cc1,i,0.26
Cc1cccc(CC(=O)Nc2ccc(C(=O)N3CCCCC3)cc2)c1,i,-0.69
CCc1ccc(CN2CCC(n3nccc3NC(=O)c3ccccc3)CC2)o1,i,-0.53
CCOc1ccc2nc(NC(=O)CN3CCC(n4nnc5cc(F)ccc54)CC3)sc2c1,i,0.56
CN(CCCN1CCOCC1)C(=O)c1ccc2nc(Cc3cccc(Cl)c3)oc2c1,i,0.25
O=C(CCCOc1ccccc1)Nc1nccs1,i,1.8
COc1ccc(S(=O)(=O)NCC2CCCO2)c(Cl)c1Cl (configuration not stated),i,1.8
Cc1sc2c(c1C)c(=O)nc1n2Cc2ccccc2-1,i,-2.9
Cc1c(C)c(C)c(CN2CCCC2)c(C)c1C,i,-0.39
CCOc1ccc2nc3cc(NCc4ccc(OC)cc4)ccc3c(N)c2c1,i,4
CCOC(=O)CSc1nnnn1-c1cccc2ccccc12,i,0.07
O=C(Nc1ccccc1)c1ccc2c(c1)OCCCO2,i,-0.28
COc1ccc(C(=O)CSc2nnnn2C)c(OC)c1,i,0.53
Cc1ccc2nc(-c3ccc(NC(=S)NC(=O)CC(C)C)cc3)sc2c1,i,-0.68
OCCN(Cc1ccccc1)Cc1ccc(C(F)(F)F)cc1,i,0.03
Cc1ccc(C(=O)CN2/C(=C(\O)c3ccccc3)C(=O)c3ccccc3S2(=O)=O)c(C)c1,i,0.19
Cn1c(=O)c2c(nc(SCCCC#N)n2Cc2c(F)cccc2Cl)n(C)c1=O,i,0.55
CNc1ccccc1C(=O)OCC(=O)Nc1ccc2c(c1)OCO2,i,0.02
CN(CC1CCCCO1)C(=O)c1cc(COc2ccc(F)cc2Cl)on1 (configuration not stated),i,-0.47
COc1ccc(N2C(=O)NC(NC(=O)c3ccncc3)(C(F)(F)F)C2=O)cc1 (configuration not stated),i,-0.65
CCOC(=O)c1ccccc1NC(=O)CSc1nc2c(c(=O)n(C)c(=O)n2C)n1C,i,1.1
Cc1ccc(CC(=O)NC2CCCc3ccccc32)cc1C (configuration not stated),i,0.67
CCCc1nnc(NC(=O)CCS(=O)(=O)Cc2ccccc2)s1,i,-0.1
COC(=O)c1cccc(NC(N)=S)c1,i,-1.1
COc1ccccc1CNC(=O)[C@H](NC(=O)C1CCN(C(=O)[C@@H](N)CCSC)CC1)C(C)C,i,1.2
O=C(NCCCn1ccnc1)c1cc(Cl)cc(Cl)c1,i,0.04
CC1(C)CN(c2ccccc2)N(C(=O)c2ccc(F)cc2)C1=O,i,-1.5
O=C(NCCN1CCOCC1)c1cc(-c2cccc(Cl)c2)on1,i,-0.39
NNC(=S)NCc1ccccc1,i,2.2
COC/C=C/C1=CC2=CC(=O)C(C)(OC(=O)C3CCCC3)C(=O)C2=CO1 (configuration not stated),i,-0.18
CCN(CC)S(=O)(=O)c1cc(-c2nnc(-c3ccc(Br)cc3)o2)ccc1Cl,-6.1*,0.68*
COc1ccc(OCCCC(=O)Nc2ncn[nH]2)cc1,i,-0.75
Cc1ccc(N(Cc2cc3ccccc3[nH]c2=O)C(=O)c2cccs2)cc1C,i,1.5
CCOc1ccc(CCNC(=O)COC(=O)C2=NNC(=O)CC2)cc1OCC,i,-1.2
O=C(NCCN1CCOCC1)c1ccc2c(c1)N(Cc1ccccc1)C(=O)CS2,i,-2.7
CCSc1oc(-c2cccs2)nc1S(=O)(=O)c1ccccc1,i,0.12

In a second layout: entries from further up
Order of values – KCNQ2 inh | KCNQ2 inh baseline
> Cn1c(=O)c2c(nc(SCCCC#N)n2Cc2c(F)cccc2Cl)n(C)c1=O
→ i | 0.55
> CNc1ccccc1C(=O)OCC(=O)Nc1ccc2c(c1)OCO2
→ i | 0.02
> CN(CC1CCCCO1)C(=O)c1cc(COc2ccc(F)cc2Cl)on1 (configuration not stated)
→ i | -0.47
> COc1ccc(N2C(=O)NC(NC(=O)c3ccncc3)(C(F)(F)F)C2=O)cc1 (configuration not stated)
→ i | -0.65
> CCOC(=O)c1ccccc1NC(=O)CSc1nc2c(c(=O)n(C)c(=O)n2C)n1C
→ i | 1.1
> Cc1ccc(CC(=O)NC2CCCc3ccccc32)cc1C (configuration not stated)
→ i | 0.67

The results go on.
structure,KCNQ2 inh,KCNQ2 inh baseline
CCOC(=O)c1cccc(P(=O)(C(C)(C)C)C(C)(C)C)c1,i,0.71
O=c1c2ccccc2nc(SCc2nnc(-c3ccccc3Br)o2)n1Cc1ccco1,i,0.15
CCN=c1scc(-c2ccco2)n1/N=C/c1ccc(OC)c(O)c1,i,-0.4
CC1CCCN1CC#CC(O)(c1ccccc1)c1ccccc1 (configuration not stated),i,1.5
C/C(=N\NC(=O)C1CCCC1)c1ccc(Cl)cc1,i,1.2
CCc1ccc(Nc2nnc(SCC(=O)NC(=O)c3cccn3C)s2)cc1,i,-0.14
CCOC(=O)c1cnc2c(-c3ccccc3)cnn2c1N,i,1.4
C[C@@H](C(=O)CC(=O)OC(C)(C)C)[C@@H](O)c1ccccc1,i,-1.2
Cc1ccc(C(=O)Nc2ccc(OCc3ccccc3)cc2)cc1[N+](=O)[O-],i,-0.19
O=c1[nH]cnc2nc3n(c12)CCCCC3,i,1.9
CC(=O)c1c(C)[nH]c(C(=O)COc2ccc(C#N)cc2)c1C,i,-0.04
COc1cccc2c1OCC([C@@H]1C[C@H]3CN(Cc4cccc(Cl)c4)C(=O)[C@]34CCCN14)=C2,i,0.94
Cc1cccc(NC(=O)CSc2nnc(-c3ccc(S(=O)(=O)N4CCCC4)cc3)o2)c1,i,-0.71
Cc1cc(NC(=O)COC(=O)c2cc(S(=O)(=O)N3CCOCC3)ccc2N2CCCCC2)no1,i,0.01
COc1ccc(C2C(C(=O)NCCN3CCOCC3)c3ccccc3C(=O)N2C2CCCCC2)cc1 (configuration not stated),i,1.1
COCCN(CC1CCCN(C2Cc3ccccc3C2)C1)C(=O)CCC(F)(F)F (configuration not stated),i,-1.5
O=C(N1CCCCC1)C12CC3CC(CC(C3)C1)C2,i,0.48
O=C(Nc1ccc2[nH]c(=O)[nH]c2c1)c1c(F)c(F)c(F)c(F)c1F,i,-1.2
COc1ccc(OC2CCN(S(=O)(=O)c3ccc(OC)cc3)CC2)cc1,i,2.3
COc1ccc(/C=C2\SC(=S)N(CCCC(=O)Nc3cc(C)on3)C2=O)cc1OC,i,-0.49
Cc1cccc(N2CC(C(=O)Nc3ccc4c(c3)OCCO4)CC2=O)c1C (configuration not stated),i,-0.11
COc1ccccc1NC(=S)N(Cc1ccccn1)Cc1ccccc1Cl,i,-2
CCc1nnc(NS(=O)(=O)c2ccc(N/C=C\C(=O)c3cccc4ccccc34)cc2)s1,i,-2.7
O=S(=O)(NC1CCCCC1NCc1ccco1)c1ccccc1 (configuration not stated),i,0.89
CC1(C)COCN1S(=O)(=O)c1ccc(C(=O)Nc2nnc(-c3ccc(Cl)s3)o2)cc1,i,-0.95
O=c1c2ccccc2nc(-c2ccccc2)n1Cc1ccccc1,i,-0.03
COc1cc(/C=C/C(=O)OCC(=O)N2CCN(S(=O)(=O)c3ccc(C)cc3C)CC2)ccc1O,i,0.29
CCOC(=O)C1CCN(Cc2cc(=O)n3c(-c4ccccc4)csc3n2)CC1,i,0.16
COCCCNC(=O)CN(C1CCCCC1)S(=O)(=O)c1ccc(C)cc1,i,-0.34
COc1cccc(C(=O)Nc2ccc(-c3nnc(-c4ccco4)o3)cc2)c1,i,1
O=c1cc(CO)oc(C(Nc2ccccn2)c2ccc(C(F)(F)F)cc2)c1O (configuration not stated),i,0.74

The list is partial (hit frequency here may not be typical).
